Assay outcomes: PubChem, National Center for Advancing Translational Sciences (NCATS)
TRPML1 ag = agonists of human TRPML1 channel | activation, % (no concentration beside the values) | 0.12% of 410,000 active | Q9GZU1 | TRPML1-expressing cells, Ca2+ dye fluorescence, FDSS; host cell line not named in the record; reference of the full effect not given here; in the data active = activation above about 50%; inconclusive = about 30% to 50%; inactive = below about 30%; note: 0% is about no effect; the text of the record puts the active cut at 80%
Target sequence (Q9GZU1 whole entry, looked up): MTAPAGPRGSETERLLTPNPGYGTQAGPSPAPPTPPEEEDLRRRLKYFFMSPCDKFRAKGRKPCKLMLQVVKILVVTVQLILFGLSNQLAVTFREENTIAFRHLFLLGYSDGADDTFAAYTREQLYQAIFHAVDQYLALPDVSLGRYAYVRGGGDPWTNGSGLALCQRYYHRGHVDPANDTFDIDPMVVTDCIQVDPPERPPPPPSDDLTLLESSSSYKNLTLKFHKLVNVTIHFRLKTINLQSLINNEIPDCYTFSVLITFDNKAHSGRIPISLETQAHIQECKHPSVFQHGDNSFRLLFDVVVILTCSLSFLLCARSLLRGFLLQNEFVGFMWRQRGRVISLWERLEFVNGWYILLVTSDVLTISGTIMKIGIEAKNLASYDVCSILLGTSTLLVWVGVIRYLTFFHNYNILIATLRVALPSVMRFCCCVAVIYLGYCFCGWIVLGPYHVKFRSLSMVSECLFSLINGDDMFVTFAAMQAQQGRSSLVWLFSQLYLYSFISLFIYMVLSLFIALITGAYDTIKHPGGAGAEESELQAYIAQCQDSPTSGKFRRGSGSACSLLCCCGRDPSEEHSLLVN
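Calcium fluorescence on an FDSS kinetic reader gave the read-out. Tet-induced TRPML1-DL cells were plated overnight, dye-loaded (Ca8 with quencher, 45-90 min, room temperature, dark), then read 110 s after compound addition, and again 110 s after 4uM final 54-4 (EC80).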
Six1-Eya2 blk = inhibitors of human Six1/Eya2 interaction; 0.56% of 360,000 active; AlphaScreen GST-Six1/His-Eya2 binding, biochemical; hits give low values; control for the full effect not named in the record; activity change, % (no concentration beside the values); in the data active = activity change below about -65%; inconclusive = about -30% to -65%; inactive = above about -30%; note: % is set by controls: 0 for no effect and ±100 for the full control effect; compound concentration not given in the record
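Six1/Eya2 binding was read as AlphaScreen signal after compounds were pinned into GST-Six1 plus His-tagged Eya2 (5X stock 250/500 nM) in pH 8.0 Tris/NaCl/TCEP buffer, beads added, then incubated 1 h, 37 C, dark.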
PINK1 modulator = PINK1 expression modulation; PINK1 immunofluorescence, high-content cytometry, 24 h; Potency, µM (series often up to 76.6 µM), inactives show at the highest dose activation (PINK1 increase), most hits filed as activators; 0.2% of 410,000 active; AID 624263; active = well fitted activation curve with a large enough effect; inconclusive = small, poorly fitted or top-dose-only effect; inactive = flat fitted curve, though single readings scatter; cell line not stated here;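 note: potency is the fitted concentration of half-maximal effect; % of control where 0% means no effect; nearly all actives have a fitted effect of over 65% in size; a mitochondrial uncoupler was the plate control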
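Compound titrations (5 concentrations, 24 h) on a stable cell line; DMSO and CCCP controls. Endpoint: fixed-cell PINK1 immunofluorescence with mitochondrial, cell and nuclear markers, scanned by microplate cytometer.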
D2 PAM = human D2 receptor positive allosteric modulation. P14416. DiscoveRx D2 beta-arrestin cells, luminescence, 90 min; 100% = 57 uM dopamine signal. potentiation, % (concentration not given with the values). 0.23% of 360,000 active; active = potentiation of 50% or more; inconclusive = 30% to 50%; inactive = 30% or less;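 note: compound concentration not given in the record; tested on top of an EC20 dose of dopamine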
Target sequence (P14416 whole entry, looked up): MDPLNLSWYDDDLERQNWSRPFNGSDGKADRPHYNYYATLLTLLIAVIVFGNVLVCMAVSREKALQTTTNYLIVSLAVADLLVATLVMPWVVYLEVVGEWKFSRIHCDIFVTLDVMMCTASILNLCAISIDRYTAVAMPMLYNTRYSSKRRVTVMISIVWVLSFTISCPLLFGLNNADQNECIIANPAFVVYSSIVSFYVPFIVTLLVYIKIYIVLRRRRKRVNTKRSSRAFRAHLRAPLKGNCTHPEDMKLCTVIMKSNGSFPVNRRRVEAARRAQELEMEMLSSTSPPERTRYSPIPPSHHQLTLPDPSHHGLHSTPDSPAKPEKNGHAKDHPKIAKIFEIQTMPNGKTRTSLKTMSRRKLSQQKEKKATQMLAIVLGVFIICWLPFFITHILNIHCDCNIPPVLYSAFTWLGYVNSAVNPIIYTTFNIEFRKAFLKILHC
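PathHunter beta-arrestin assay in DiscoveRx D2 cells. Compounds were added with an EC20 of dopamine (50 nM final) for 90 min at 37 deg C. Luminescence was read 1 h after detection reagent, with 57 uM dopamine as the EC100 control.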
TRPML1 inh = inhibitors of human TRPML1 channel. Q9GZU1. TRPML1-inducible cells, Ca2+ dye fluorescence, FDSS; hits give low values; inhibition of EC80 agonist-evoked calcium signal. activity change, negative = inhibition, % (test concentration not listed). 0.02% of 390,000 active. AID 624415; in the data active means activity change below about -50%; inconclusive means about -30% to -50%; inactive means above about -30%;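 note: stimulus is agonist 54-4 at its EC80 concentration; % is set by controls: 0 for no effect and ±100 for the full control effect; compound concentration not given in the record; the text of the record puts the active cut at -80%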
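Tet-induced TRPML1-DL cells loaded with Ca8 no-wash calcium dye were read kinetically on FDSS. Compound addition was followed by EC80 agonist 54-4 (4 uM final); inhibition was read over 110 s.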
D2 ag = agonists of human D2 dopamine receptor (beta-arrestin) | P14416 | 0.084% of 360,000 active | AID 624465 | activation, % (concentration not given with the values) | DiscoveRx PathHunter D2 beta-arrestin, luminescence, 90 min; 100% = 57 uM dopamine signal; in the data active = activation above about 40%; inconclusive = about 15% to 40%; inactive = below about 15%; note: compound concentration not given in the record; the text of the record calls up to 30% inactive
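Agonist mode: compounds alone added to overnight-plated D2 PathHunter cells for 90 min at 37 C, with 57 uM final dopamine (EC100) defining full response. Beta-arrestin recruitment detected by chemiluminescent reagent, read after 1 h at ambient temperature.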
An asterisk follows results filed as active; & = joins results of further samples; [ ] = another dose, or the depositor's remark.

How did CC1CCC/C(=N\Nc2ccc(Cl)c(C(=O)O)c2)C1 (configuration not stated) do in these assays?
TRPML1 ag: -0.2; Six1-Eya2 blk: -15; PINK1 modulator: -0.4%; D2 PAM: 0; TRPML1 inh: -3; D2 ag: -4.3

How did O=C(O)CCCN1C(=O)C2C3CC(C2C1=O)C1C(c2ccccc2)c2sc(=O)[nH]c2SC31 (configuration not stated) do in these assays?
TRPML1 ag: -0.2; Six1-Eya2 blk: -2; PINK1 modulator: -0.4%; D2 PAM: -5; TRPML1 inh: -7; D2 ag: 1.3

How did CC1CCCCN1C(=O)CCNC(=O)Cn1cnc2ccccc2c1=O (configuration not stated) do in these assays?
TRPML1 ag: -0.9; Six1-Eya2 blk: 0; PINK1 modulator: 1.5%; D2 PAM: -7; TRPML1 inh: 7; D2 ag: -2.9

What do the screens show for `O=C(Cn1cccc1C(=O)c1ccccc1)NCCCN1CCOCC1`?
TRPML1 ag: -0.9; Six1-Eya2 blk: 0; PINK1 modulator: 0.3%; D2 PAM: -21; TRPML1 inh: 2; D2 ag: -0.7

What do the screens show for `O=C(/C=C/c1ccc2c(c1)OCO2)NCC1CCCO1` (configuration not stated)?
TRPML1 ag: 0.2; Six1-Eya2 blk: 6; PINK1 modulator: 0.0%; D2 PAM: -8; TRPML1 inh: -2; D2 ag: -2.3

How did CCc1ncc(CN2CCC(C(=O)Nc3ccc(-n4nc(C)cc4C)cc3)CC2)cn1 do in these assays?
TRPML1 ag: 0.4; Six1-Eya2 blk: -7; PINK1 modulator: 1.0%; D2 PAM: -12; TRPML1 inh: -1; D2 ag: -6.3

What do the screens show for `COc1cc(C(O)c2nc(-c3cc(F)cc(F)c3)cs2)ccc1F` (configuration not stated)?
TRPML1 ag: -0.9; Six1-Eya2 blk: -2; PINK1 modulator: 10%; D2 PAM: 0; D2 ag: -2.7

What do the screens show for `COc1ccccc1CN1CCC(n2nccc2NC(=O)CCc2ccccc2)CC1`?
TRPML1 ag: -0.9; Six1-Eya2 blk: -2; PINK1 modulator: -1.3%; D2 PAM: -24; TRPML1 inh: -1; D2 ag: -6.8

How did CC1(C)S[C@@H]2[C@H](NC(=O)C(C(=O)O)c3ccccc3)C(=O)N2[C@H]1C(=O)O (some centres not stated) do in these assays?
TRPML1 ag: -0.2; Six1-Eya2 blk: -8; PINK1 modulator: 1.2%; D2 PAM: 5; TRPML1 inh: 5; D2 ag: -5.8

Results for COc1cc(C(=O)NC2CCN(Cc3ccccc3)CC2)cc(Cl)c1OC ?
TRPML1 ag: 1.3; Six1-Eya2 blk: -3; PINK1 modulator: -0.2%; D2 PAM: -26; TRPML1 inh: 7; D2 ag: -0.9

How did CCc1c(C(=O)N/N=C/c2ccc(OCc3ccc(F)cc3)c(OC)c2)nnn1-c1nonc1N do in these assays?
TRPML1 ag: 3.0; Six1-Eya2 blk: -1; PINK1 modulator: 12%; D2 PAM: -4; TRPML1 inh: 9; D2 ag: 11

What do the screens show for `CCN1CCN(C(=O)C2CCCN(S(=O)(=O)c3cccc4nsnc34)C2)CC1` (configuration not stated)?
TRPML1 ag: -0.4; Six1-Eya2 blk: -6; PINK1 modulator: 0.6%; D2 PAM: -11; TRPML1 inh: 14; D2 ag: -6.7

Results for CCOC(=O)c1ccc(NC(=O)c2nc[nH]c2C(=O)N[C@@H](CCCCNC(=O)OC(C)(C)C)C(=O)OC(C)(C)C)cc1 ?
TRPML1 ag: 3.7; Six1-Eya2 blk: 4; PINK1 modulator: -1.3%; D2 PAM: -5; TRPML1 inh: 9; D2 ag: -0.8

How did CN(c1ccc(C(=O)N2CCCCC2)cc1)S(C)(=O)=O do in these assays?
TRPML1 ag: 0.8; Six1-Eya2 blk: -8; PINK1 modulator: 2.2%[38.3 µM]; D2 PAM: 3; TRPML1 inh: 6; D2 ag: 0.8

What do the screens show for `CCOCCCNC(=O)C(c1ccc(OC)cc1)N(Cc1cccs1)C(=O)CNC(C)=O` (configuration not stated)?
TRPML1 ag: 0.9&0.5; Six1-Eya2 blk: -22; PINK1 modulator: 0.6%&1.1%; D2 PAM: 14; TRPML1 inh: 13&0; D2 ag: -2.5

What do the screens show for `Cc1ccnc(NC(NC(=O)C(C)C)(C(F)(F)F)C(F)(F)F)c1`?
TRPML1 ag: -0.4; Six1-Eya2 blk: 2; PINK1 modulator: 1.2%; D2 PAM: -9; TRPML1 inh: 1; D2 ag: -2.0

How did O=C(NCC(=O)N1CCN(c2ccccc2O)CC1)c1ccc2ccccc2c1 do in these assays?
TRPML1 ag: 1.8; Six1-Eya2 blk: -14; PINK1 modulator: -0.2%; D2 PAM: -5; TRPML1 inh: -10; D2 ag: 1.2

What do the screens show for `O=C(Oc1coc(CSc2ncccn2)cc1=O)c1ccco1`?
TRPML1 ag: -0.6; Six1-Eya2 blk: -4; PINK1 modulator: 4.6%; D2 PAM: -3; TRPML1 inh: 6; D2 ag: -1.1

How did COc1ccccc1NC(=O)Nc1nnc(CC(=O)Nc2ccccc2C)s1 do in these assays?
TRPML1 ag: 0.5; Six1-Eya2 blk: -4; PINK1 modulator: 0.7%; D2 PAM: -6; TRPML1 inh: -7; D2 ag: 1.5

Results for O=C(Nc1nnc(C2CC2)s1)c1ccc(S(=O)(=O)c2ccccc2)cc1 ?
TRPML1 ag: -0.3; Six1-Eya2 blk: 1; PINK1 modulator: 2.3%[38.3 µM]; D2 PAM: -14; TRPML1 inh: 4; D2 ag: -3.7

What do the screens show for `O=C(CCOc1ccccc1)N1CCN(c2ccc(O)cc2)CC1`?
TRPML1 ag: 0.2; Six1-Eya2 blk: 0; PINK1 modulator: -0.7%; D2 PAM: 7; TRPML1 inh: -16; D2 ag: 2.4

How did Cc1ccc(N(C(=O)c2ccc3c(c2)OCO3)C2C=CS(=O)(=O)C2)cc1C (configuration not stated) do in these assays?
TRPML1 ag: 0.3; Six1-Eya2 blk: 1; PINK1 modulator: 2.9%; D2 PAM: -3; TRPML1 inh: 5; D2 ag: -5.1

How did Cn1[nH]c2c(c1=O)[C@H](c1ccc(F)cc1)O[C@H](CCc1ccccc1)C2 do in these assays?
TRPML1 ag: 0.7; Six1-Eya2 blk: -3; PINK1 modulator: 1.8%; D2 PAM: -17; TRPML1 inh: 19; D2 ag: -6.1

How did CCOC(=O)C1CCCN(C(=O)c2ccc3c(c2)OCO3)C1 (configuration not stated) do in these assays?
TRPML1 ag: 0.4; Six1-Eya2 blk: 9; PINK1 modulator: 0.1%; D2 PAM: -4; TRPML1 inh: -10; D2 ag: -0.4

Results for CC1Cc2cc(S(=O)(=O)NCc3ccc(N(C)C)cc3)ccc2N1C(=O)C1CCC1 (configuration not stated) ?
TRPML1 ag: -0.5; PINK1 modulator: -0.3%; TRPML1 inh: 1

How did Nc1c(-c2cccc(Cl)c2)cnn1-c1ccccc1 do in these assays?
TRPML1 ag: 0.0; Six1-Eya2 blk: 4; PINK1 modulator: 1.2%; D2 PAM: -1; TRPML1 inh: -3; D2 ag: 1.8

How did CCc1n[nH]c(=S)n1/N=C/c1cc(OC)cc([N+](=O)[O-])c1O do in these assays?
TRPML1 ag: 1.3; Six1-Eya2 blk: -3; PINK1 modulator: 0.0%; D2 PAM: -29; TRPML1 inh: -29; D2 ag: -12

What do the screens show for `Cc1ccc(S(=O)(=O)N2CCOCC2)cc1C(=O)N1CC(C)CC(C)C1` (configuration not stated)?
TRPML1 ag: 0.6; Six1-Eya2 blk: 8; PINK1 modulator: 1.3%; D2 PAM: -4; TRPML1 inh: -14; D2 ag: -1.3

How did CC1CN(C(=O)CN2C(=O)c3ccccc3C2=O)CC(C)O1 (configuration not stated) do in these assays?
TRPML1 ag: -0.4; Six1-Eya2 blk: 9; PINK1 modulator: -1.2%; D2 PAM: 0; TRPML1 inh: -4; D2 ag: -0.9

What do the screens show for `O=C(NCc1ccccc1)C1=C[C@@H](C2CCCCC2)C[C@@H](OCc2ccc(CO)cc2)O1`?
TRPML1 ag: 1.9; Six1-Eya2 blk: -8; PINK1 modulator: 5.9%; D2 PAM: -8; TRPML1 inh: 4; D2 ag: -2.0

Filtered by structure, the compounds so far containing a Cl atom.
How did CC1CCC/C(=N\Nc2ccc(Cl)c(C(=O)O)c2)C1 (configuration not stated) do in these assays?
TRPML1 ag: -0.2; Six1-Eya2 blk: -15; PINK1 modulator: -0.4%; D2 PAM: 0; TRPML1 inh: -3; D2 ag: -4.3

Results for COc1cc(C(=O)NC2CCN(Cc3ccccc3)CC2)cc(Cl)c1OC ?
TRPML1 ag: 1.3; Six1-Eya2 blk: -3; PINK1 modulator: -0.2%; D2 PAM: -26; TRPML1 inh: 7; D2 ag: -0.9

How did Nc1c(-c2cccc(Cl)c2)cnn1-c1ccccc1 do in these assays?
TRPML1 ag: 0.0; Six1-Eya2 blk: 4; PINK1 modulator: 1.2%; D2 PAM: -1; TRPML1 inh: -3; D2 ag: 1.8

(more compounds)
Results for CSCCC(NS(=O)(=O)c1ccc(C)cc1)C(=O)N(C)CC(=O)Nc1ccccc1Br (configuration not stated) ?
TRPML1 ag: 0.6; Six1-Eya2 blk: 1; PINK1 modulator: 0.4%; D2 PAM: -27; TRPML1 inh: 2; D2 ag: -7.5

What do the screens show for `COc1ccc(S(=O)(=O)N2CCOCC2)cc1C(=O)N1CCCCCC1`?
TRPML1 ag: -0.2; Six1-Eya2 blk: 4; PINK1 modulator: -0.6%; D2 PAM: -5; TRPML1 inh: 14; D2 ag: -1.3

Results for O=C(c1cc(-c2cccc(Cl)c2)on1)N1CCCCCC1 ?
TRPML1 ag: -0.6; Six1-Eya2 blk: 11; PINK1 modulator: 2.5%; D2 PAM: -5; TRPML1 inh: 0; D2 ag: -3.4

How did CCOC(=O)c1c(C)oc2ccc(NS(=O)(=O)c3ccc(C(=O)O)cc3)cc12 do in these assays?
TRPML1 ag: 0.4; Six1-Eya2 blk: inconclusive; PINK1 modulator: 4.3%; D2 PAM: -1; TRPML1 inh: -14; D2 ag: -1.3

Results for Nc1cccn2c(-c3ccc(Cl)cc3)cnc12 ?
TRPML1 ag: 0.4; Six1-Eya2 blk: -15; PINK1 modulator: 2.2%; D2 PAM: -10; TRPML1 inh: 15; D2 ag: 12

What do the screens show for `CCN1C(=O)N[C@@H](CCc2ccccc2)[C@H](C(C)=O)[C@H]1C`?
TRPML1 ag: -0.4; Six1-Eya2 blk: 7; PINK1 modulator: -1.4%; D2 PAM: -12; TRPML1 inh: 1; D2 ag: -0.2

What do the screens show for `O=C1NC[C@H](Cc2ccc(O)cc2)N(C[C@@H]2CCCN2C[C@H](Cc2ccccc2)N2C[C@H](Cc3ccc(O)cc3)N(CC3CCCCCC3)C(=O)C2=O)C1=O`?
TRPML1 ag: -0.2; Six1-Eya2 blk: -4; PINK1 modulator: 4.7%

What do the screens show for `CCN(CC)C(=O)C(=O)Nc1ccc(OCc2ccccc2)cc1`?
TRPML1 ag: 1.3; Six1-Eya2 blk: -1; PINK1 modulator: 0.4%; D2 PAM: 3; TRPML1 inh: 1; D2 ag: -3.5
